Vaccinia Venus: vaccinia inhibition (Venus reporter); Potency, µM (titrated, usually from 36.5 µM), for inactives: at the highest dose activity change, negative = inhibition, actives largely listed as inhibitors; AID 720580; Vaccinia virus Venus reporter expression, fluorescence; 330,000 compounds, 0.46% hits; active means well fitted inhibition curve with a large enough effect; inconclusive means small, poorly fitted or top-dose-only effect; inactive means no such curve, though single readings can be large or run the other way; tested in A549 cells; note: nearly all actives have a fitted effect of over 30% in size; inactives centre near -10
VACV mCherry inh: inhibitors of vaccinia virus infection (mCherry reporter signal); 310,000 compounds, 0.63% hits; Potency, µM (doses to about 36.5 µM), for the others: at the top dose activity change, negative = inhibition, actives largely listed as inhibitors; Vaccinia virus mCherry reporter infection, fluorescence; about a quarter of the inactives have no number; active = well fitted inhibition curve with a large enough effect; inconclusive = small, poorly fitted or top-dose-only effect; inactive = no such curve, though single readings can be large or run the other way; tested in A549 cells; note: nearly all actives have a fitted effect of over 35% in size; inactives centre near -10
Numbers without * were called inactive; i = inactive; u = inconclusive; x = not tested or not shown; [ ] = another dose, or the depositor's remark. % is set by controls: 0 for no effect and ±100 for the full control effect; potency is the fitted concentration of half-maximal effect. The order is random; any-hit rate near 0.87%.

compound | Vaccinia Venus | VACV mCherry inh
O=C(Cc1ccc(Cl)cc1)NCCc1csc2nc(-c3ccccc3F)nn12 | -22% | -11%
CCC(C)N(C)C1CCN(C(=S)Nc2cccc(SC)c2)CC1 (configuration not stated) | -12% | -25%
O=C(c1ccc(Cl)cc1)N1CCC(C(=O)N2CCN(c3ncccn3)CC2)CC1 | -8% | -15%
COC(=O)C1=C(c2cccc(C#N)c2)C[C@@H]2CC[C@H]1N2C(=O)NC1Cc2ccccc2C1 | u | -22%
CCNC1CCS(=O)(=O)C1 (configuration not stated) | -12% | i
CCC1(c2ccccc2)NC(=O)N(CC(=O)Nc2ccccc2N2CCCCC2)C1=O (configuration not stated) | -24% | -6%
C/C(CC(=O)Nc1ccc(F)cc1)=N\NC(=O)COc1ccccc1 | -11% | i
CC(C)(CNC(=O)c1ccc(Cl)c(S(=O)(=O)N2CCc3ccccc3C2)c1)N1CCOCC1 | -12% | -29%
COc1ccc(-n2cc(CNCCN3CCOC3=O)c(-c3ccccc3Cl)n2)cc1 | 5%[7.34 µM] | -4%[7.34 µM]
CN(C)CCOC1c2ccccc2CCc2ccc3ccccc3c21 (configuration not stated) | -19% | u
CCn1cc(S(=O)(=O)NC(C)c2cc(OC)ccc2OC)cn1 (configuration not stated) | -5% | i
Cc1c(C(=N)C(C#N)C#N)c(=N)oc2c1ccc1ccccc12 | u | -17%
COc1ccc(Br)cc1C(=O)Nc1ccc(C(=O)O)cc1 | -8% | -14%
O=C(CSc1nnc(SCc2cccc3ccccc23)s1)Nc1ccc(C(=O)O)cc1 | 7% | -6%
Nc1cccnc1S(=O)(=O)c1ccccc1 | -15% | i
CCOc1ncccc1C(=O)OCC(=O)N1CCc2ccccc21 | -19% | -8%
COc1ccc(-c2nn(-c3ccccc3)cc2C2NC(=O)NC(C)=C2C(=O)OC(C)C)cc1Cl (configuration not stated) | -27% | -24%
Cc1onc(-c2ccccc2)c1C(=O)OCC(=O)Nc1ccccc1 | -10% | -16%
CCc1c(O)nc(SCC(=O)Nc2ccccc2)n(-c2ccccc2)c1=O | -6% | -11%
CN1CCN(Cc2ccc(Sc3ccc(Cl)cc3)c([N+](=O)[O-])c2)CC1 | -15% | -21%
COc1ccc(C2C(C(=O)Nc3cccc(C)n3)CCC(=O)N2c2ccc(OC)cc2)cc1 (configuration not stated) | -28% | x
CCOc1ccc(OCCC(=O)OCC(=O)Nc2cc(C)nn2-c2ccccc2)cc1 | -16% | -2%
COc1cccc(CN2CCNC(=O)C2CC(=O)O)c1OC (configuration not stated) | -2% | -8%
COc1ccc([C@@H]2CC=C(C(=O)O)[C@H](c3ccc(F)cc3)N2S(=O)(=O)c2ccc(C)cc2)cc1OC | 2% | i
CC(=O)c1cccc(NC(=O)C(C)OC(=O)c2cccc(-n3cnnn3)c2)c1 (configuration not stated) | -11% | i
COc1cccc(N2CC(NC(=O)c3cccc(OC)c3OC)CC2=O)c1 (configuration not stated) | -6%[7.34 µM] | -11%[7.34 µM]
CSCCC(NC(=O)c1ccco1)C(=O)NCc1ccc2c(c1)OCO2 (configuration not stated) | -9% | -11%
O=C(O)Cn1nnnc1SCC(=O)Nc1ccccc1F | -8% | i
CC1CCCCN1Cc1c(O)ccc2c(=O)c(-c3nc4ccccc4s3)coc12 (configuration not stated) | -11% | u
Cc1ccccc1Cc1c(C)nc2nc(SCC(=O)NCCCN3CCCC3)nn2c1C | -11% | -14%
O=C(Nc1ccc(F)c(Cl)c1)C1CCCN(S(=O)(=O)c2cccc3nsnc23)C1 (configuration not stated) | -12% | -23%
CCOc1ccc2nc(C)cc(Nc3cccc([N+](=O)[O-])c3)c2c1 | u | 11µM*
CC(C)(C)c1ccc(C(=O)Nc2ccc(O)c3c(=O)cc(-c4ccccc4Cl)oc23)cc1 | -8% | -4%
O=C(Nc1cc(Cl)ccn1)C1CCN(S(=O)(=O)c2cccs2)CC1 | u | u
CCC1CN(C(=O)NCc2cccc(OC)c2)c2cc(Cl)ccc2O1 (configuration not stated) | -3% | 4%
CCC(=O)Nc1ccc(NC(=O)CCc2ccccc2)cn1 | -4% | i

The last three compounds of the part above are carried over, then new ones follow.
compound | Vaccinia Venus | VACV mCherry inh
O=C(Nc1cc(Cl)ccn1)C1CCN(S(=O)(=O)c2cccs2)CC1 | u | u
CCC1CN(C(=O)NCc2cccc(OC)c2)c2cc(Cl)ccc2O1 (configuration not stated) | -3% | 4%
CCC(=O)Nc1ccc(NC(=O)CCc2ccccc2)cn1 | -4% | i
COc1ccc(NC(=O)N(C)C[C@H]2Oc3cc(Br)ccc3S(=O)(=O)N([C@H](C)CO)C[C@@H]2C)cc1 | -20% | -12%
COc1ccc(C)cc1S(=O)(=O)N(CC(=O)Nc1cccc([N+](=O)[O-])c1)c1ccccc1 | -12% | -6%
CC1CCc2c(C(=O)NCc3ccccn3)csc2C1 (configuration not stated) | -12% | -19%
Cc1cc(N2C(=O)C(=O)/C(=C(/O)c3ccccc3)C2c2cccc(Br)c2)no1 (configuration not stated) | -6% | -5%
CCn1c(SCC(=O)Nc2ccccc2F)nc2c(c1=O)SC(C)C2 (configuration not stated) | -6% | x
O=C1CC(c2cc(F)cc(F)c2)c2cc3c(cc2N1)OCO3 (configuration not stated) | -15% | -12%
Cc1ccc(S(=O)(=O)NNC(=O)CCC(=O)Nc2ccc(C)c(C)c2)cc1 | -23% | x
O=C(O)c1ccccc1-c1ncc(-c2ccccc2)o1 | 16% | 11%
Cc1ccc(-n2cccn2)c(CN2CCCC(CNC(=O)c3ccc(F)cc3)C2)c1 (configuration not stated) | 7% | -10%
N#CCC(=O)Nc1ccc(C(=O)Nc2cccc(S(=O)(=O)N3CCCC3)c2)cc1 | 3% | i
COc1cc(Cl)ccc1OCc1cc(C(=O)N2C[C@@H]3CCC[C@H]2C3)no1 | -11% | -21%
CN(c1ccccc1)S(=O)(=O)c1cccc(NC(=O)CSc2n[nH]c(N)n2)c1 | -8% | 10%
Cc1cc(C(F)F)nn1CC(=O)NC1CCCC1 | -14% | i
CN(CC(=O)Nc1cccc(F)c1)C(=O)CCCc1nc2ccccc2c(=O)[nH]1 | -11% | i
CCN(CC)c1ccc(NC(=O)Nc2cccc3ccccc23)cc1 | -14% | -30%
Clc1ccccc1NN=Cc1ccccn1 | -13% | i
c1csc(CSc2nc3ccccc3s2)c1 | -7% | i
O=C1/C(=C/c2cccc(O)c2)SC(=S)N1CC1CCCO1 (configuration not stated) | -10% | -42%
O=C(Nc1ccc(Br)cc1)N1CCCCCCC1 | u | x
CC(Oc1ccccc1)C(=O)N1CCN(c2ccc(N3CCCCCC3)nn2)CC1 (configuration not stated) | -13% | -24%
NNc1cc(C(=O)O)ccc1Cl | -4% | -3%
COC(=O)Nc1nc2ccccc2[nH]1 | -17% | u
COCCNC(=O)c1c[nH]n2c(=O)cc(C3CCN(C(=O)OC(C)(C)C)CC3)nc12 | -1% | i
O=C(CN(Cc1ccco1)C(=O)CCC(=O)Nc1ccccn1)NCCc1ccccc1 | 7% | x

Among those listed so far, 4 contain bromine:
compound | Vaccinia Venus | VACV mCherry inh
COc1ccc(Br)cc1C(=O)Nc1ccc(C(=O)O)cc1 | -8% | -14%
COc1ccc(NC(=O)N(C)C[C@H]2Oc3cc(Br)ccc3S(=O)(=O)N([C@H](C)CO)C[C@@H]2C)cc1 | -20% | -12%
Cc1cc(N2C(=O)C(=O)/C(=C(/O)c3ccccc3)C2c2cccc(Br)c2)no1 (configuration not stated) | -6% | -5%
O=C(Nc1ccc(Br)cc1)N1CCCCCCC1 | u | x

Remaining list, next part
compound | Vaccinia Venus | VACV mCherry inh
Cc1ccc(S(=O)(=O)N2CCN(Cc3ccco3)CC2)cc1C | -6% | -6%
O=C(NCC1CCCO1)c1cccc(Oc2ccc([N+](=O)[O-])cc2Cl)c1 (configuration not stated) | -19% | -14%
CC(Nc1nc(N2CCOCC2)nc2ccccc12)c1ccccc1 (configuration not stated) | -18% | i
COCCNC(=O)c1ccc2c(c1)ncn2-c1cc(C)ccc1OC | -5% | -5%
Cc1ccsc1C1C(C#N)=C(N)OC2=C1C(=O)CCC2 (configuration not stated) | 1% | i
O=C1C2C(c3ccccc3)C=CC(c3ccccc3)C2C(=O)N1c1ccccn1 (configuration not stated) | -13% | -17%
CC(=O)Oc1ccc2c3c(c(=O)oc2c1C)CCCC3 | -5% | 0%
COc1ccccc1C(=O)NCCn1cc(SCC(=O)Nc2nnc(C)s2)c2ccccc21 | -11% | -19%
CC(=O)c1cc(C#N)c(Oc2ccc(Cl)cc2Cl)nc1C | -19% | i
COc1ccc(OC)c(C2C=C(C34CC5CC(CC(C5)C3)C4)NC(=S)N2)c1 (configuration not stated) | -18% | -20%
COc1ccc(NC(=O)C2CCCCC2)cc1S(=O)(=O)N1CCOCC1 | 0% | i
Cc1ccc(NC(=O)C2CCC(CNS(=O)(=O)c3csc(C(N)=O)c3)CC2)cc1Cl (configuration not stated) | 0% | -6%
CC(=O)OC1CC2C(C)(C)C(=O)C=C[C@]2(C)C2CC[C@]3(C)C(=CC(=O)OC3c3ccoc3)[C@]12C (some centres not stated) | u | -24%
O=C1CC(c2ccc(Cl)cc2)CC(O)=C1C=NCc1ccc(Cl)c(Cl)c1 (configuration not stated) | -12% | -12%
CCCCCCC(C)OC(=O)Nc1cccc2ccccc12 (configuration not stated) | 1% | -25%
COc1cc(C(=O)NC(C)c2cnn(-c3ccccc3C)c2C)cc(OC)c1OC (configuration not stated) | 0% | -1%
C/C(CC(=O)NC1CCCCC1)=N\NC(=O)c1ccccn1 | -10% | -26%
Cc1ccc(Cn2cc(CN(C)C3CN(Cc4cn(Cc5ccc(C)cc5)nn4)S(=O)(=O)C3)nn2)cc1 (configuration not stated) | -11% | -8%
COc1cc(/C=C/C(=O)O[C@H]2[C@H](O[C@@H]3O[C@@H](C)[C@H](O)[C@@H](O)[C@H]3O)[C@@H](O)[C@H](OCCc3ccc(O)c(OC)c3)O[C@@H]2CO)ccc1O | -13% | i
COc1cc(C2C(N3C(=O)c4ccccc4C3=O)C(=O)N2c2ccc(C)c(C)c2)cc(OC)c1OC (configuration not stated) | -8% | i
COC(C)(C)CCCC(C)C/C=C/C(C)=C/C(=O)O (configuration not stated) | -1% | i
CS(=O)(=O)c1ccc2nc(NC(=O)CCNC(=O)c3ccc(Cl)cc3)sc2c1 | -20% | -27%
COC(=O)CSc1nnc(CNc2nc(-c3ccccc3)cs2)n1C | -6% | -9%
CCCNC(=O)c1cc(C2CCCCN2C(=O)c2ccc(NC(C)=O)cc2)on1 (configuration not stated) | 8% | -4%

Three compounds out of the list, ordered by count of non-hydrogen atoms, rising.
compound | Vaccinia Venus | VACV mCherry inh
CCOc1ccc(OCCC(=O)OCC(=O)Nc2cc(C)nn2-c2ccccc2)cc1 | -16% | -2%
CC(C)(C)c1ccc(C(=O)Nc2ccc(O)c3c(=O)cc(-c4ccccc4Cl)oc23)cc1 | -8% | -4%
COc1ccc([C@@H]2CC=C(C(=O)O)[C@H](c3ccc(F)cc3)N2S(=O)(=O)c2ccc(C)cc2)cc1OC | 2% | i

(next part)
compound | Vaccinia Venus | VACV mCherry inh
O=C(Nc1ccc(F)c(F)c1)c1ccc2c(c1)OCO2 | -20% | -6%
O=c1[nH]c(=S)n(-c2ccccc2F)c(O)c1C=Nc1ccc(N2CCOCC2)cc1 | 2% | -16%
COc1ccc(CCNC(=O)C(=O)NCc2cccs2)cc1OC | u | -25%
CC(C)n1cc(NC(=O)COc2ccccc2Cl)cn1 | 3% | -9%
COc1ccc2[nH]c(C(=O)O)c(NC(=O)c3ccccc3[N+](=O)[O-])c2c1 | -3% | -17%
CC(=O)Nc1ccc(NC(=O)CSc2nc(N)c(NC(=O)c3ccco3)c(=O)[nH]2)cc1 | -18% | -14%
NC(=O)C1(N2CCCCC2)CCN(S(=O)(=O)c2ccccc2)CC1 | -14% | -7%
O=C(N/N=C/c1cccc2ccccc12)C(=O)N1CCCC1 | -7% | i
Cc1ccc(-c2nn(-c3ccccc3)cc2/C=N/n2c(-c3cccs3)n[nH]c2=S)cc1 | -11% | 5%
O=C(CCS(=O)(=O)c1ccc(F)cc1)Nc1nnc(-c2cccs2)o1 | 13µM* | u
COc1cccc(OCc2cc(C(=O)N3CCN(C4CCCCC4)C(=O)C3)no2)c1 | -9% | -4%
CCOC(=O)Cn1cnc2c(nnn2-c2cccc(OC)c2)c1=O | -5% | i
CC1(C)C2CCC(C2)C1(C)NC(=O)CNCC1CCCCC1 (configuration not stated) | -29% | i
Cc1ccccc1CNC(=O)c1ccc(CSCc2ccccc2)cc1 | -5% | x
CC(C)c1cc(-c2cc(C(=O)NCc3ccccc3)on2)nc(NCC2CC2)n1 | u | -14%
Cc1cc(C)n(CCN(C)C(=O)C2CCC(=O)N(CCN3CCOCC3)C2)n1 (configuration not stated) | -2% | -10%
COc1ccccc1N(CC(=O)NC1CCCCC1C)S(=O)(=O)c1cccs1 (configuration not stated) | -12% | i
COc1ccc(CN(C)C(=O)[C@H]2O[C@@H](n3ccc(=O)[nH]c3=O)[C@H](O)[C@@H]2O)cc1OC | -1% | 16%
O=C(NC1CCCCC1)C(c1ccc(F)cc1)N(Cc1ccco1)C(=O)c1csnn1 (configuration not stated) | -6% | 4%
COc1ccc(C)cc1NC(=O)CSc1nnc2ccc(-c3ccccn3)nn12 | -17% | -1%

High-throughput results (PubChem BioAssay)
